Compound activity as filed in PubChem BioAssay.
Prx2 Sm inh: blocks S. mansoni peroxiredoxin 2 enzymatic activity; 65,000 tested, 0.07% active; AID 448; S. mansoni Prx2 activity coupled to TGR/GSH (TGR is thioredoxin glutathione reductase), NADPH fluorescence loss, qHTS; some inactives read as strong as hits; Potency, µM; active means full or partial inhibition curve with a strong effect at the top dose; inconclusive means weaker partial or single-point curve; inactive means no accepted curve; further: series up to 57 µM; many of its hits are not listed in these tables
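qHTS, coupled TGR/Prx2 format; 15 min compound preincubation at RT; reaction started with H2O2 (2.5 mM aliquot); kinetic NADPH fluorescence decrease, ex 365/em 450 nm.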
Anthrax LT inh: inhibitors of anthrax lethal toxin internalization; Cells, anthrax lethal toxin internalization, FRET ratio (460/530); Potency, µM (highest dose often 40 µM), for the others: at the highest dose activity change, negative = inhibition, most hits filed as inhibitors; 70,000 tested, 0.67% active; active = well fitted falling ratio curve with the 530 nm signal flat; inconclusive = other ratio curves, or a change in one channel alone; inactive = flat curves in the ratio and both channels; the % refers to the ratio; further: on the % scale 0 is the no-effect control and ±100 the full control effect; nearly all actives have a fitted effect of over 50% in size; tested in ME-180 cells; beta-lactamase reporter
Active calls of the source: *; & = joins results of further samples; [ ] = dose if it differs, or a comment. Potency means the concentration at half of the fitted maximal effect. Only part of the results is shown, so the mix of outcomes need not match the whole.

Screening O=C(CN1CCOc2ccccc21)NCc1cccs1 returned Prx2 Sm inh >57 and Anthrax LT inh inconclusive.
`O=C(CCn1c(=O)oc2ccccc21)NCc1ccc2c(c1)OCO2` gave Prx2 Sm inh >57 and Anthrax LT inh 2.3%.
For Cc1c2oc3c(C)ccc(C(=O)N[C@@H]4C(=O)N[C@@H](C(C)C)C(=O)N5CCC[C@@H]5C(=O)N(C)CC(=O)N(C)[C@@H](C(C)C)C(=O)O[C@H]4C)c3nc-2c(C(=O)N[C@@H]2C(=O)N[C@@H](C(C)C)C(=O)N3CCC[C@@H]3C(=O)N(C)CC(=O)N(C)[C@@H](C(C)C)C(=O)O[C@H]2C)c(N)c1=O the results were Prx2 Sm inh >57 and Anthrax LT inh inconclusive.
COC(=O)C/C=C\[C@@H](C)[C@@H](/C=N\O[C@@H](C)c1cn([C@H]2COC[C@H]2O)nn1)OC was read as Anthrax LT inh -4.4%[8 µM].
`COc1ccccc1N1CCN(CC(=O)Nc2cc(F)ccc2C)CC1` gave Prx2 Sm inh >57 and Anthrax LT inh -21.4%.
Screening Cc1ccc(S(=O)(=O)c2nc(-c3ccco3)oc2SCC(=O)NCC2CCCO2)cc1 (centres undefined) returned Prx2 Sm inh >57 and Anthrax LT inh 5.8%.
Screening CCc1cc2c(-c3ccccc3)cc(=O)oc2c(CN2CCOCC2)c1O returned Anthrax LT inh -34.3%.
For COc1cc2[nH]c(=O)c(C(=O)NCCCN3CCCCC3)c(O)c2cc1OC the results were Prx2 Sm inh >57 and Anthrax LT inh 12.6µM*.
`CCOc1ccc(N2C(=O)CC(N3CCOCC3)C2=O)cc1` (centres undefined) gave Prx2 Sm inh >57 and Anthrax LT inh -18.7%.
`CCCNC(=O)C(Cc1ccccc1)NS(=O)(=O)c1ccc2c(c1)CCC(=O)N2` (centres undefined) gave Prx2 Sm inh >57 and Anthrax LT inh -13.7%.
For NCCCc1c(-c2ccccc2)nc(N)[nH]c1=O the results were Prx2 Sm inh >57 and Anthrax LT inh 8.1%[8 µM].
For COc1ccccc1C(=O)NCCc1nc2ccccc2n1C the results were Prx2 Sm inh >57 and Anthrax LT inh 12.4%.
Cc1cc(C)cc(N(C(=O)Cn2nnc3ccccc32)C(C(=O)NCc2ccco2)c2ccncc2)c1 (centres undefined) was read as Prx2 Sm inh >57 and Anthrax LT inh 12.2%.
CC1=NCCc2c1[nH]c1cc(O)ccc21 was read as Prx2 Sm inh >57&>57 and Anthrax LT inh inconclusive.
Screening CCN(C(=O)COC(=O)c1c(-c2ccccc2)noc1C)C1CCS(=O)(=O)C1 (centres undefined) returned Prx2 Sm inh >57 and Anthrax LT inh 2.6%.
COc1ccc2cc(C(c3nnnn3Cc3ccccc3)N3CCCCCC3)c(=O)[nH]c2c1 (centres undefined) was read as Prx2 Sm inh >57 and Anthrax LT inh 2.6%.
`Cc1ccn2cc(-c3nonc3C)cc2c1` gave Prx2 Sm inh >57 and Anthrax LT inh inconclusive.
For Oc1ccc2[nH]cnc2c1CN1CCCCC1 the results were Prx2 Sm inh >57 and Anthrax LT inh inconclusive.
`O=C(NC1CC1)C1CSC(c2cccnc2)=N1` (centres undefined) gave Prx2 Sm inh >57 and Anthrax LT inh -1.4%.
For Cc1cc(NS(=O)(=O)c2ccc(NC(=O)c3cnc4scc(C)n4c3=O)cc2)nc(C)n1 the results were Prx2 Sm inh >57 and Anthrax LT inh -12.0%.
Screening Cc1nc2nc[nH]c2cc1Br returned Anthrax LT inh 8.7%.
`O=C(O)CC1C(=O)NCCN1CCCc1ccccc1` (centres undefined) gave Prx2 Sm inh >57 and Anthrax LT inh 7.8%.
Screening COc1ccccc1-n1c(SCC(=O)NC(C)(C)C)nnc1-c1ccco1 returned Prx2 Sm inh >57 and Anthrax LT inh 0.1%.
CCOC(=O)N/N=C1/C[C@@H](O)[C@@H](O)[C@@H]2[C@@H]3C(=O)N(C(C)(C)C)C(=O)[C@H]3CC[C@@H]12 was read as Anthrax LT inh -3.8%[8 µM].
Cc1ccc2cc(C(c3nnnn3C3CCCC3)N3CCN(c4ccc(F)cc4)CC3)c(=O)[nH]c2c1 (centres undefined) was read as Prx2 Sm inh >57 and Anthrax LT inh inconclusive.
`COCC(=O)N1CCC[C@@]2(CCN(Cc3ccccc3)C2)C1` gave Prx2 Sm inh >57 and Anthrax LT inh 10.1%.
COC(=O)[C@@H]1CC[C@H](C)[C@@H](c2ccc(C)cc2)N1C(=O)c1ccc(/C=N\OC[C@@H](O)COCc2ccco2)cc1 was read as Anthrax LT inh 12.1%[8 µM].
`Cc1nn(C)c(C)c1NC(=O)CCSc1nc(-c2ccco2)cc(C(F)(F)F)n1` gave Prx2 Sm inh >57 and Anthrax LT inh -12.5%.
Screening CCCc1cc(=O)[nH]c(SCC(=O)CSc2nc(CCC)cc(=O)[nH]2)n1 returned Prx2 Sm inh >57 and Anthrax LT inh -21.4%.
For CCCC(C(=O)NC1CCCC1)N(C(=O)Cn1nnc(-c2ccc(C)o2)n1)C1CCCC1 (centres undefined) the results were Prx2 Sm inh >57 and Anthrax LT inh inconclusive.
Screening COc1ccc(C)cc1NC(=O)CN1CCN(S(=O)(=O)c2ccc(Cl)cc2)CC1 returned Prx2 Sm inh >57 and Anthrax LT inh -2.3%.
`N#CCCSC(=S)[C@H]1CCCC1=N` gave Prx2 Sm inh >57 and Anthrax LT inh 3.7%[8 µM].
For Cc1ccc(C(=O)NCCN2CCOCC2)cc1Cl the results were Prx2 Sm inh >57 and Anthrax LT inh -8.4%.
For COC(=O)C(C(=O)OC)=C(/C=C/C=C/N(C)C)N(C)C the results were Anthrax LT inh -4.2%.
CCCCn1c(SCC(=O)Nc2nnc(CC)s2)nc2c1c(=O)n(C)c(=O)n2C was read as Prx2 Sm inh >57 and Anthrax LT inh -2.9%.
Screening CSc1nc(N)c2ncn([C@H]3O[C@H](COP(=O)(O)OP(=O)(O)OP(=O)(O)O)[C@@H](O)[C@@H]3O)c2n1 returned Prx2 Sm inh >57 and Anthrax LT inh -17.6%.
`CC1=C(C(=O)NC2CCC(C)CC2)C2(CCC(C)CC2)OC1=O` (centres undefined) gave Prx2 Sm inh >57 and Anthrax LT inh -14.8%.
Screening O=C(NCCCN1CCCC1)c1cccc(N2CCCC2=O)c1 returned Prx2 Sm inh >57 and Anthrax LT inh -6.8%.
Screening COCC(=O)N1CCC2(CCCN(C(c3ccccc3)c3ccccc3)C2)CC1 returned Prx2 Sm inh >57 and Anthrax LT inh 6.1%.
For CSc1nc2cc(Cl)ccc2s1 the results were Prx2 Sm inh >57 and Anthrax LT inh -4.7%.

Gathered by group: the compounds so far containing a furan ring, fused or not (six)
Screening Cc1ccc(S(=O)(=O)c2nc(-c3ccco3)oc2SCC(=O)NCC2CCCO2)cc1 (centres undefined) returned Prx2 Sm inh >57 and Anthrax LT inh 5.8%.
Cc1cc(C)cc(N(C(=O)Cn2nnc3ccccc32)C(C(=O)NCc2ccco2)c2ccncc2)c1 (centres undefined) was read as Prx2 Sm inh >57 and Anthrax LT inh 12.2%.
Screening COc1ccccc1-n1c(SCC(=O)NC(C)(C)C)nnc1-c1ccco1 returned Prx2 Sm inh >57 and Anthrax LT inh 0.1%.
COC(=O)[C@@H]1CC[C@H](C)[C@@H](c2ccc(C)cc2)N1C(=O)c1ccc(/C=N\OC[C@@H](O)COCc2ccco2)cc1 was read as Anthrax LT inh 12.1%[8 µM].
`Cc1nn(C)c(C)c1NC(=O)CCSc1nc(-c2ccco2)cc(C(F)(F)F)n1` gave Prx2 Sm inh >57 and Anthrax LT inh -12.5%.
For CCCC(C(=O)NC1CCCC1)N(C(=O)Cn1nnc(-c2ccc(C)o2)n1)C1CCCC1 (centres undefined) the results were Prx2 Sm inh >57 and Anthrax LT inh inconclusive.

The list goes on.
`CC(C)NC(=O)N1CC2(CCN(C(=O)c3cc(C(F)(F)F)cc(C(F)(F)F)c3)CC2)C1` gave Prx2 Sm inh >57 and Anthrax LT inh inconclusive.
CCOC(=O)N1CCN(CCC(=O)Nc2cccc(Br)c2)CC1 was read as Prx2 Sm inh >57 and Anthrax LT inh -26.6%.
For COc1cc(NC(=O)CN2CCN(c3ccccc3F)CC2)cc(OC)c1 the results were Prx2 Sm inh >57 and Anthrax LT inh inconclusive.
`O=c1c2c3c(sc2n(CCN2CCOCC2)c(=O)n1Cc1ccco1)CCCCC3` gave Prx2 Sm inh inconclusive and Anthrax LT inh inconclusive.
Screening CCOC(=O)c1ccc(NC(=O)COC)cc1 returned Prx2 Sm inh >57 and Anthrax LT inh -1.1%.
For Cc1ccc(C(C)C)c(OCc2nnc3n2CCCCC3)c1 the results were Prx2 Sm inh >57 and Anthrax LT inh -21.1%.
`CCN1CCCC1CNC(=O)C(NC(=O)C1CCC(C)CC1)C(C)C` (centres undefined) gave Prx2 Sm inh >57 and Anthrax LT inh -8.0%.
`C=CCN(CC=C)C(=O)C1CCC(C(=O)N(CC=C)CC=C)CC1` (centres undefined) gave Prx2 Sm inh >57 and Anthrax LT inh 8.6%.
For O=C1CCCc2nc(N3CCN(c4ccccc4)CC3)ncc21 the results were Prx2 Sm inh >57 and Anthrax LT inh 7.1%.
Screening CN(c1nc2ccccc2n2c(-c3ccco3)nnc12)S(=O)(=O)c1ccccc1 returned Prx2 Sm inh >57 and Anthrax LT inh -11.1%.
`CCN1C2=NCCCN2c2cc(C)c(C)cc21` gave Prx2 Sm inh >57 and Anthrax LT inh -8.2%.
For CCc1cc2ccccc2nc1SCC(=O)Nc1cc(C)on1 the results were Prx2 Sm inh >57 and Anthrax LT inh -16.8%.
For O=C(CSc1nn(-c2ccc(F)cc2)c(=S)s1)N1CCN(C(=O)c2ccco2)CC1 the results were Prx2 Sm inh >57 and Anthrax LT inh 0.0%.
For CCCCSc1nnc([C@@H](NC(=O)OC(C)(C)C)C(C)C)o1 the results were Prx2 Sm inh >57 and Anthrax LT inh 17.8%.
For COCCCNC(=O)CCn1c(=O)c2ccccc2n(CC(=O)Nc2c(C)cccc2C)c1=O the results were Prx2 Sm inh >57 and Anthrax LT inh -1.6%.
`Cc1ccc(NC(=O)CSc2n[nH]c(-c3ccncc3)n2)cc1` gave Prx2 Sm inh >57 and Anthrax LT inh -5.6%.
Screening O=C(O)c1c(Sc2ccccc2)c2cc(Cl)ccc2n1Cc1ccc(Cl)cc1 returned Anthrax LT inh inconclusive.
For CN1CCN(C(=O)Cc2nc3ccccc3[nH]2)CC1 the results were Prx2 Sm inh >57 and Anthrax LT inh -7.1%.
For O=C1C2CC=C(Cl)CC2C(=O)N1c1ncn[nH]1 (centres undefined) the results were Prx2 Sm inh >57 and Anthrax LT inh 3.4%.
`CN1CCN(C(=O)C2CCCCC2C(=O)O)CC1` (centres undefined) gave Prx2 Sm inh >57 and Anthrax LT inh 0.8%.
For CN(C(=O)C1CCOC1)c1nnc(C2CCOC2)s1 (centres undefined) the results were Prx2 Sm inh >57 and Anthrax LT inh -15.8%.
`COc1ccc(-n2c(=O)cnc3cnc(N4CCNCC4)nc32)cc1` gave Prx2 Sm inh >57 and Anthrax LT inh inconclusive.
Screening Cc1cccc(C)c1NC(=O)C(c1ccccc1)N1CCC2(CC1)OCCO2 (centres undefined) returned Prx2 Sm inh >57 and Anthrax LT inh 0.4%.
For Cc1c(Cl)cccc1NC(=O)CSc1nnc(C)n1-c1ccccc1 the results were Prx2 Sm inh >57 and Anthrax LT inh -2.5%.
For O=C(O)c1cc(S(=O)(=O)NCC2CCCO2)ccc1Cl (centres undefined) the results were Prx2 Sm inh >57 and Anthrax LT inh -3.3%.
`CC(=O)N1c2c(cc(Br)cc2S(=O)(=O)N2CCN(c3ccccn3)CC2)CC1C` (centres undefined) gave Prx2 Sm inh >57 and Anthrax LT inh -20.4%.
`CCS(=O)(=O)N1CCN(C(=O)c2cc(OC)cc(OC)c2)CC1` gave Prx2 Sm inh >57 and Anthrax LT inh 5.3%.
`CN(C)[C@@H]1C(=O)C(C(N)=O)=C(O)[C@]2(O)C(=O)C3=C(O)c4c(O)cccc4[C@@](C)(O)[C@H]3[C@H](O)[C@@H]12` gave Prx2 Sm inh >57 and Anthrax LT inh 1.5%[3.58 µM].
Screening CCc1nnc(NC(=O)Cc2ccc(OCc3c(C)noc3C)cc2)s1 returned Prx2 Sm inh >57 and Anthrax LT inh -7.5%.
Screening COCCCNc1nc2c([nH]1)c(=O)[nH]c(=O)n2C returned Prx2 Sm inh >57 and Anthrax LT inh -14.9%.
[Li+] was read as Prx2 Sm inh >57 and Anthrax LT inh -3.3%.
`C[C@@H](c1ccccc1)N1C(=O)[C@H]2[C@H]3[C@H](O)[C@H](O)C/C(=N/OC[C@@H](O)COCc4ccco4)[C@@H]3CC[C@@H]2C1=O` gave Anthrax LT inh 0.1%[8 µM].
O=C(CSCc1cnn(-c2ccccc2)c1-n1cccc1)NCc1ccc2c(c1)OCO2 was read as Prx2 Sm inh >57 and Anthrax LT inh -11.7%.
Cc1oc(-c2ccccc2F)nc1CN1CCC(C(=O)NCCC2=CCCCC2)CC1 was read as Prx2 Sm inh >57.
For COc1ccc(OC)c(CC(NC(C)=O)C(=O)NC2CCN(c3nc(C)cc(C)c3C#N)CC2)c1 (centres undefined) the results were Prx2 Sm inh >57 and Anthrax LT inh -10.2%.
CN1C(=O)NC(c2ccccc2)C2=C1CN(c1cccc(C(F)(F)F)c1)C2=O (centres undefined) was read as Prx2 Sm inh >57 and Anthrax LT inh inconclusive.
